YopH PTP inh – YopH tyrosine phosphatase inhibitors, primary screen, biochemical, fluorescence Ex485/Em525; inhibition, %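 (about 10 µM by stock and volumes)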; 140,000 compounds, 0.16% hits;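 active means inhibition of 50% or more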;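 further: controls were vehicle for no effect and minimum signal wells for full effect; inactives centre near -20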
Mtb betalactam – beta-lactam sensitization of Mtb H37Rv, H37Rv. AID 434955, 2010. M. tuberculosis H37Rv growth with meropenem, percent inhibition; hits of this screen are not shown here. 330,000 compounds, 0.27% hits. inhibition, % at 25 µM;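 active means about 74% or more and at least 40 points above the plate without the antibiotic, then above 30% in a dose series; inconclusive means first-round hits that could not be retested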;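 further: growth measured after seven days incubation then overnight dye step; 0% = bacteria only wells and 100% = bacteria with antibiotic; twin plates without the antibiotic show which effects depend on it; some results filed as inactive read as strong as hits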
Mtb H37Rv – M. tuberculosis H37Rv growth inhibitors, H37Rv strain (AID 1626); M. tuberculosis H37Rv growth inhibition; higher % means a stronger effect; one-dose inhibition, % at 10 µM; IC50 in µM for titrated hits; 220,000 compounds, 0.95% hits;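 active means confirmed in a dose series; inconclusive means inhibition above 80% but not taken into the dose series; inactive means below 80% or under 30% at every dose of the series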;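 further: bacteria incubated seven days before Alamar blue readout; 0% = bacteria only wells and 100% = bacteria with antibiotic wells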
RecA intein inh – Mtb RecA intein splicing inhibitors, primary screen, biochemical, fluorescence, HTS; inhibition, %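 (about 9 µM by stock and volumes)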; 290,000 compounds, 0.75% hits; cell-free RecA intein splicing; Protein RecA (Mycobacterium tuberculosis (strain ATCC 25618 / H37Rv)), P9WHJ3; AID 2221, 2009; in the data active means inhibition above about 30%; inconclusive means no clear call, values can overlap the other calls;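 further: 0% = vehicle wells and 100% = reference inhibitor control wells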
Target sequence (P9WHJ3 whole entry, looked up): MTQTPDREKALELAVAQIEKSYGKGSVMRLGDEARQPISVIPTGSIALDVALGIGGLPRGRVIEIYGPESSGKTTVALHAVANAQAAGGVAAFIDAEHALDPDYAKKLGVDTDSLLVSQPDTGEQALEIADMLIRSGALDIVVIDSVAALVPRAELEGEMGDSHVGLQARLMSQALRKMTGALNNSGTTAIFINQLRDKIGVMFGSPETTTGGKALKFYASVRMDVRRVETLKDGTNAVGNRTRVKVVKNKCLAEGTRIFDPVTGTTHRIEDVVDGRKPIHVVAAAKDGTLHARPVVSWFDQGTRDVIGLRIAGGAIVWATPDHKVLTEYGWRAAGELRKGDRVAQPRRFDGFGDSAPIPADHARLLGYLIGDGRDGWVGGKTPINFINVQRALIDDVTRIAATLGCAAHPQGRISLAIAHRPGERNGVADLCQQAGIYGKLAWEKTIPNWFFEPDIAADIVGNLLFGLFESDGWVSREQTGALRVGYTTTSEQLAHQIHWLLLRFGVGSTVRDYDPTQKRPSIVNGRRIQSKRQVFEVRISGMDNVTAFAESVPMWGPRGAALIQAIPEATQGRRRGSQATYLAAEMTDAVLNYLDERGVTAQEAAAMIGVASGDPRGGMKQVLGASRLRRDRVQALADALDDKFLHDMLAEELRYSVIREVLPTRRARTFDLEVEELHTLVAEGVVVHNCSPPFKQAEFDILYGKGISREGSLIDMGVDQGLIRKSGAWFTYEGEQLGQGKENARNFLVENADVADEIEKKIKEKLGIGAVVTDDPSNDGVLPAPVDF
Arbovirus anti – antivirals against arbovirus infection, primary screen, cell-based, full library, 10K replicate subset; arbovirus infection cell-based antiviral screen; inhibition, % at 10 µM; 200,000 compounds, 0.37% hits; AID 1251, 2008;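 active means inhibition from about 30%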;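 further: bluetongue infection of BSR cells; cell survival read as ATP light after 72 h; 0% = infected wells without compound and 100% = uninfected wells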
Arbovirus anti repeat – also measured in Arbovirus anti; calls as there; inhibition, %; measured here: 10K subset replicate screen; many hits read low in the repeat;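 first of two repeat runs on a subset; 0% = infected and 100% = uninfected wells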
* marks the source's active call; other numbers are inactive results; ? = inconclusive; · = no result given.

SMILES	YopH PTP inh	Mtb betalactam	Mtb H37Rv	RecA intein inh	Arbovirus anti	others
CC(=O)Nc1ccc(S(=O)(=O)Nc2cccc(-c3cn4cccnc4n3)c2)cc1	·	-4	-7%	-4.6	4
Cc1cc(S(=O)(=O)Nc2ccc3c(c2)COC3=O)ccc1F	·	-2	-3%	0.4	-1
Cn1ccnc1SCCNC(=O)C1CCC(=O)N(Cc2ccc(Cl)cc2)C1 (stereo not given)	·	6	·	0.8	·
O=C(O)c1ccc2c(c1)C(=O)N(c1cc([N+](=O)[O-])ccn1)C2=O	·	-3	·	-0.8	·
O=C1Nc2cc(Cl)c(Cl)cc2N(O)N1c1cccc(Cl)c1	-13	-11	-6%	-0.8	3
Cc1ccc(CN2C(=O)CCC2C(=O)NCc2ccco2)cc1 (stereo not given)	-21	0	-4%	-0.1	-3
CC(C)C[C@H](NC(=O)C1CCN(S(=O)(=O)c2ccccc2)CC1)C(=O)NCc1cccnc1	·	2	·	-3.3	·
COc1ccc(NC(=O)c2c3c(nc4ccccc24)CCC3)cc1	-15	2	-3%	-0.4	-8
O=C(Cc1cccc2ccccc12)NNC(=O)Nc1cccc(Cl)c1	-48	-9	12%	-5.3	-6
O=C(Nc1ccc(NC(=O)c2cccnc2)cc1)c1ccccc1	·	-1	·	3.0	·
Cc1ccccc1N(C(=O)Cn1nnc(-c2ccc(F)cc2)n1)C(C(=O)NC(C)(C)C)c1ccncc1 (stereo not given)	·	4	6%	-5.7	7
Cc1ccccc1-n1c(-c2ccco2)n[nH]c1=S	-16	11	-14%	-7.0	-2
CSc1ccccc1OCc1cc(C(=O)NCc2cccc(C)n2)no1	·	10	·	0.2	·
O=C(CN(Cc1ccccc1)C(=O)CCC(=O)Nc1ccccn1)NCc1ccco1	-22	-24	-6%	3.5	1
COc1ccccc1CNC(=O)c1ccc(CS(=O)(=O)c2ccccc2)o1	·	0	·	-0.3	·
COc1cccc(-c2ccc(C#N)c(OC(=O)c3c(Cl)cccc3Cl)n2)c1	1	-4	-10%	-0.8	-21
CSCCC(NC(=O)CCN1C(=O)c2ccccc2C1=O)C(=O)O (stereo not given)	-41	8	-4%	-0.7	0
CSC1=NC2(CC(c3ccccc3)Oc3cc(O)ccc32)CC(C)(C)N1 (stereo not given)	-1	-13	·	0.8	-36
CCn1c(SCC#N)nc2ccccc2c1=O	·	-9	-9%	1.0	·
CC(=O)c1cccc(NC(=O)COc2ccc(S(=O)(=O)N3CCOCC3)cc2)c1	·	-14	·	-0.9	·
C/C(CC(=O)Nc1ccc(Cl)cc1Cl)=N\NC(=O)c1ccncc1	·	99	?	5.8	·
O=C(N/N=C/c1ccc(Br)cc1)c1ccccc1-n1cccc1	-10	97	1%	-3.2	-12
Cc1cc(C(=O)CSc2nnc(-c3ccccc3)n2-c2ccccc2)c(C)n1-c1ncn[nH]1	-17	3	-7%	-1.0	14
CCOC(=O)CSc1nc2sc3c(c2c(=O)n1-c1ccc(OCC)cc1)CCN(C)C3	·	13	·	15	·
CC1Sc2ccc(S(=O)(=O)CCC(=O)NC3CCCCCC3)cc2NC1=O (stereo not given)	·	-3	·	0.2	·
Cn1cccc1/C=C1\SC(=O)N(CC(=O)Nc2ccc(F)cc2)C1=O	·	0	8%	-0.6	-10
COc1ccc(S(=O)(=O)N(C)CC(=O)Nc2ccccc2OC)cc1	-22	-5	15%	0.3	-6
O=C1C=C(NCc2ccc(Cl)cc2)CC(c2ccco2)C1 (stereo not given)	-2	-3	-10%	-1.3	-19
C/C(=N\NC(=O)CSc1nc2ccccc2c(=O)n1-c1ccccc1C)c1cccs1	-17	-10	0%	-4.3	4
Nc1cc(S(=O)(=O)N2CCOCC2)ccc1Oc1ccc(F)cc1	·	-5	1%	0.9	9
Cc1c(C#N)c2ccccc2n1CC(=O)NCc1cccnc1	-2	-14	·	-1.5	15
COCCSc1nnc(NC(=O)C2CCCO2)s1 (stereo not given)	-49	-3	-3%	-0.9	0
CC(C)CNC(=O)CN1C(=O)NC(Cc2c[nH]c3ccccc23)C1=O (stereo not given)	·	-5	-14%	0.8	-1
Cc1noc(NC(=O)c2ccc(Cl)cc2)c1Cl	·	-1	7%	-1.7	4
O=C(O)C1CCC1C(=O)Nc1nc(-c2ccc(Cl)s2)cs1 (stereo not given)	·	-1	-11%	0.6	·
C/C(N)=C(/C#N)C(=O)CSc1cc(C)c2cc(C)cc(C)c2n1	·	-5	7%	7.9	3
Cc1ccc(C(=O)Nc2cccc3cccnc23)cc1Br	·	0	·	-1.1	·
O=C(COC(=O)CNC(=O)c1ccco1)Nc1ccc(F)cc1	·	-6	41%	-0.2	5
CCOC(=O)c1c(NC(=O)CN2C(=O)c3ccccc3C2=O)sc(Cc2ccc3c(c2)OCO3)c1C	-21	3	6%	-2.4	7
COc1cccc(-c2ccc(C#N)c(OC(=O)c3ccc(Cl)cc3)n2)c1	-26	3	6%	-2.8	2

Part of the list above in order of molecular weight, rising.
SMILES	YopH PTP inh	Mtb betalactam	Mtb H37Rv	RecA intein inh	Arbovirus anti	others
Cc1noc(NC(=O)c2ccc(Cl)cc2)c1Cl	·	-1	7%	-1.7	4
COCCSc1nnc(NC(=O)C2CCCO2)s1 (stereo not given)	-49	-3	-3%	-0.9	0
O=C(COC(=O)CNC(=O)c1ccco1)Nc1ccc(F)cc1	·	-6	41%	-0.2	5
C/C(N)=C(/C#N)C(=O)CSc1cc(C)c2cc(C)cc(C)c2n1	·	-5	7%	7.9	3
Cc1ccc(C(=O)Nc2cccc3cccnc23)cc1Br	·	0	·	-1.1	·
CC(C)CNC(=O)CN1C(=O)NC(Cc2c[nH]c3ccccc23)C1=O (stereo not given)	·	-5	-14%	0.8	-1
O=C(O)C1CCC1C(=O)Nc1nc(-c2ccc(Cl)s2)cs1 (stereo not given)	·	-1	-11%	0.6	·
Nc1cc(S(=O)(=O)N2CCOCC2)ccc1Oc1ccc(F)cc1	·	-5	1%	0.9	9
Cn1cccc1/C=C1\SC(=O)N(CC(=O)Nc2ccc(F)cc2)C1=O	·	0	8%	-0.6	-10
COc1ccc(S(=O)(=O)N(C)CC(=O)Nc2ccccc2OC)cc1	-22	-5	15%	0.3	-6
O=C(N/N=C/c1ccc(Br)cc1)c1ccccc1-n1cccc1	-10	97	1%	-3.2	-12
CC1Sc2ccc(S(=O)(=O)CCC(=O)NC3CCCCCC3)cc2NC1=O (stereo not given)	·	-3	·	0.2	·
C/C(=N\NC(=O)CSc1nc2ccccc2c(=O)n1-c1ccccc1C)c1cccs1	-17	-10	0%	-4.3	4
Cc1cc(C(=O)CSc2nnc(-c3ccccc3)n2-c2ccccc2)c(C)n1-c1ncn[nH]1	-17	3	-7%	-1.0	14
CCOC(=O)CSc1nc2sc3c(c2c(=O)n1-c1ccc(OCC)cc1)CCN(C)C3	·	13	·	15	·
CCOC(=O)c1c(NC(=O)CN2C(=O)c3ccccc3C2=O)sc(Cc2ccc3c(c2)OCO3)c1C	-21	3	6%	-2.4	7

Next section
SMILES	YopH PTP inh	Mtb betalactam	Mtb H37Rv	RecA intein inh	Arbovirus anti	others
CCCCC1=CC2=CC(=O)C(C)(OC(=O)CC)C(=O)C2=CN1CCc1c[nH]c2ccccc12 (stereo not given)	·	-8	0%	-3.2	·
CCOC(=O)N1CCC(N2Cc3cccc(C(=O)Nc4ccc(N(CC)CC)cc4C)c3C2=O)CC1	·	94	·	-1.0	·
Cc1oc(-c2cccs2)nc1CN1CCN(C2CCCC2)C(CCO)C1 (stereo not given)	·	-8	-2%	-1.3	-9
COc1ccc(S(=O)(=O)NC(CC(=O)NCc2ccccc2OC)c2ccco2)cc1 (stereo not given)	-55	-3	-2%	4.3	0
COc1cccc(CC2CC(=O)N(c3ccc4c(C)cc(=O)oc4c3)C2=O)c1 (stereo not given)	·	1	-5%	-1.4	3
O=C(Nc1ccc(Cl)cc1)Nc1nnc(Cc2ccc([N+](=O)[O-])cc2)s1	-12	2	-4%	1.3	-1
COc1cc2[nH]c(=S)nc(NCc3cccs3)c2cc1OC	·	-6	2%	0.4	-6
O=C(COC(=O)c1ccc(S(=O)(=O)N2CCCC2)cc1)Nc1cccnc1Cl	·	0	1%	0.0	0
CCOc1ccc(Oc2ccc(C(F)(F)F)cc2N)cc1	-43	9	10%	2.7	-6
CC1CCC/C(=N\NC(=O)Nc2ccccc2)C1 (stereo not given)	-33	-2	1%	-4.8	2
COc1ccc(NC(=O)C(NC(=O)Cc2cccs2)c2ccccc2)cc1 (stereo not given)	-13	1	15%	0.4	-6
COc1ccc(C)cc1S(=O)(=O)Nc1cccc(-c2ccc(N3CCCCCC3)nn2)c1	·	56	·	4.5	·
CC(=O)Nc1ccc(OC(=O)c2cc3cc(Br)ccc3oc2=O)cc1	-38	3	2%	6.9	-6
COc1ccc(-c2[nH]ncc2CN(C)Cc2c(C)n[nH]c2C)c(OC)c1	·	7	0%	-1.0	8
COc1ccc(-c2cn(-c3ccc(C)cc3)c(=O)n2CC(=O)Nc2ccc(OC)cc2OC)cc1	-9	-2	1%	1.5	3
CC1=Nn2c(nnc2-c2cccs2)SC1	-6	-8	1%	0.5	1
CCc1ccc(OCC(O)CN2CCCC2)cc1 (stereo not given)	·	-3	·	3.2	·
COCCNC(=O)c1ccc(NC(=O)C2(c3ccccc3)CCCC2)cc1	·	·	33%	0.0	-2
CC1=CC(c2ccccc2)NC(=S)N1 (stereo not given)	-10	1	-3%	4.3	3
CC1Cc2ccccc2N1C(=O)CSc1nnc2sc3ccccc3n12 (stereo not given)	-22	-8	-1%	-0.3	5
Cc1ccc(S(=O)(=O)N2CCCCC2CCNC(=O)C(=O)NCCc2ccco2)cc1 (stereo not given)	·	1	·	-1.2	·
Cc1cc(OCc2cccc(Cl)c2)c(C)cc1CN1CCOCC1	·	-7	13%	7.9	1
COc1ccc(C(C(=O)NC2CCCCC2)N(CC2CCCO2)C(=O)CNC(=O)c2ccco2)cc1 (stereo not given)	-36	-6	-2%	0.3	1
Cc1ccc(C)c(-n2c(-c3csc(C)c3C)n[nH]c2=S)c1	-32	-7	-3%	0.3	0
CCN(CC(=O)N1CCCCC1)S(=O)(=O)c1ccccc1	·	-8	·	-1.1	·
CCOC(=O)N1CCN(c2nc3ccc(C(=O)c4ccccc4)cc3n3cnnc23)CC1	·	65	12%	-1.9	·
Cc1ccc(C)c(-c2nnc(NC(=O)COc3ccccc3)o2)c1	·	99	·	1.0	·
Cc1ccc(S(=O)(=O)NCCc2ccncc2)cc1	-17	-1	-1%	-0.3	2
O=C1OCCN1P(=O)(c1ccccc1)c1ccccc1	-29	2	7%	3.3	-5	Arbovirus anti repeat=-3
CC1(C(=O)NC2CCCCC2)CCC(=O)N1Cc1cccnc1 (stereo not given)	-12	0	0%	·	-6	Arbovirus anti repeat=4
COCc1nnc(NC(=O)CCC2CCCCC2)s1	17	0	-1%	-0.3	8
CC(=O)/C=C(\C)Nc1c(C)n(C)n(-c2ccccc2)c1=O	·	-4	-2%	-6.1	4
O=C(Oc1nsnc1N1CCOCC1)N1CCCCC1	-36	-2	8%	-1.3	·
COc1ccccc1OCCCC(=O)Nc1ccc2c(c1)OCCO2	·	9	·	0.4	·
Cc1ccc2[nH]c3c(=O)n(Cc4ccncc4)cnc3c2c1	-52	-14	-15%	-1.8	11
CCOC(=O)C1(CCc2ccccc2)CCN(C(=O)CCc2cnn(C)c2)CC1	·	-12	6%	·	5
COc1ccccc1CCC(=O)OCC(=O)Nc1ccc2[nH]c(=O)[nH]c2c1	·	-2	·	-1.4	·
O=C(Cc1ccc([N+](=O)[O-])cc1)N1CCN(c2ccc([N+](=O)[O-])cc2)CC1	·	5	·	0.5	·
Cc1cccc(N/N=C/c2ccc(O)c(O)c2O)c1	·	4	-12%	6.8	·
O=C(OCc1cc2ccccc2[nH]c1=O)c1cccc([N+](=O)[O-])c1	·	6	3%	-0.7	·

Continued; it opens with the two that closed the last part.
SMILES	YopH PTP inh	Mtb betalactam	Mtb H37Rv	RecA intein inh	Arbovirus anti	others
Cc1cccc(N/N=C/c2ccc(O)c(O)c2O)c1	·	4	-12%	6.8	·
O=C(OCc1cc2ccccc2[nH]c1=O)c1cccc([N+](=O)[O-])c1	·	6	3%	-0.7	·
COC(=O)c1sc(=S)n(Cc2ccccc2)c1C	·	-2	-4%	0.5	·
Cc1ccc(S(=O)(=O)N2CCC(C(=O)NCCC3=CCCCC3)CC2)c(C)c1	·	-17	·	1.5	·
CCOC(=O)NC1(NCC(C)C)Oc2ccccc2O1	-21	0	-2%	-6.9	1
Cc1ccc(NC(=O)C(=O)NC2CCCCC2)cc1	-14	5	2%	-0.8	-2

This is a subset (hit frequency here may not be typical).
